PINK1 expr mod: changes PINK1 expression | AID 624263 | Potency, µM (highest dose often 76.6 µM), for the others: top-dose activation (PINK1 increase), actives largely listed as activators | PINK1 immunofluorescence, high-content cytometry, 24 h | actives 0.2% (n = 410,000); active = well fitted activation curve with a large enough effect; inconclusive = small, poorly fitted or top-dose-only effect; inactive = flat fitted curve, though single readings scatter; cell line not stated here;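 also: potency is read from the fitted curve at half-maximal effect; % of control where 0% means no effect; nearly all actives have a fitted effect of over 65% in size; a mitochondrial uncoupler was the plate control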
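PINK1 protein, normally rapidly degraded, was detected by immunofluorescence after 24 hour compound treatment of a stable cell line. Titration data (5 concentrations) came from laser-scanning cytometry, with CCCP-treated wells as controls.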
ClpP mod: qHTS Assay for Activators of ClpP; ATP-dependent Clp protease proteolytic subunit (Bacillus subtilis (strain 168)), P80244; purified B. subtilis ClpP, FRET peptide cleavage, 20 min; Potency, µM (doses to about 57.5 µM), inactives show top-dose activity change, negative = active; actives 1.9% (n = 340,000); AID 651965, 2013; active = well fitted falling curve with a large enough effect; inconclusive = small, poorly fitted or top-dose-only effect; inactive = no such curve, though single readings can be large or run the other way; also: potency is read from the fitted curve at half-maximal effect; the source files actives as falling curves though it sought activators and does not explain the sign; nearly all actives have a fitted effect of over 65% in size; many hits overshoot -100%
Target sequence (P80244 whole entry, looked up): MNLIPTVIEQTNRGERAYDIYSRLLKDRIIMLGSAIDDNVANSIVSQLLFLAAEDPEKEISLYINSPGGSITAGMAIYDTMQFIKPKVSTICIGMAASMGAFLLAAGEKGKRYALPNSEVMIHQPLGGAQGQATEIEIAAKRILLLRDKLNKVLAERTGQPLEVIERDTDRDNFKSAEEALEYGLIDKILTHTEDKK
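Buffer: 100 mM Tris/HCl pH8, 100 mM KCl, 0.05% low protease BSA, 2.5% glycerol, 0.01% Tween-20. ClpP 10 microg/mL final; 20 min RT; delta FRET normalized to ADEP and DMSO controls.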
gsp agonist: gsp mutant agonism. gsp mutant cells, cAMP HTRF, 30 min; control for the full effect not named in the record. Potency, µM (highest dose often 76.9 µM), without a hit: at the top dose activation (cAMP increase), hits mostly activators. actives 0.13% (n = 340,000). AID 624287; active = well fitted activation curve with a large enough effect; inconclusive = small, poorly fitted or top-dose-only effect, or another doubt; inactive = no such curve, though single readings can be large or run the other way; cell line not stated here;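 also: phosphodiesterase inhibitor Ro 20-1724 added with compounds to block cAMP breakdown; potency is read from the fitted curve at half-maximal effect; nearly all actives have a fitted effect of over 60% in size; about a fifth of the inactives were tested at one dose only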
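Cells in DMEM/10% FBS with G418 were pretreated with compounds in DMSO plus […] (300 uM stock) for 30 min at 37C. cAMP was measured by HTRF (cAMP-d2 plus anti-cAMP antibody-K) after 30 min at room temperature.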
Menin-MLL FL inh: menin-MLL binding inhibition, fluorescein peptide; Fluorescence polarization, fluorescein-MLL peptide displacement from menin; FP activity change, % at 61.4 µM; 290,000 tested, under 10 active; AID 1766; inconclusive = falling polarisation curve, or a change in total fluorescence; inactive = total fluorescence flat and polarisation flat or rising; no compound was filed as active; the % refers to the polarisation; negative = inhibition;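 also: % of control where 0% means no effect; inhibitors lower the polarisation; unlabelled MLL peptide was the positive control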
gsp antagonist: antagonizes gsp, the McCune-Albright syndrome mutation. actives 0.4% (n = 340,000). gsp-mutant cells, cAMP HTRF, 30 min; control for the full effect not named in the record. Potency, µM (titrated, usually from 76.9 µM), for the others: at the highest dose activity change, negative = inhibition, usual class: inhibitors; active = falling curve of any shape with a large fitted effect; inconclusive = falling curve, mostly with a smaller effect; inactive = flat or rising curve; cell line not stated here;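 also: intracellular cAMP measured with PDE inhibitor Ro 20-1724 present during compound exposure; potency is read from the fitted curve at half-maximal effect; % is scaled to controls: 0 for no effect and ±100 for the full control effect; nearly all actives have a fitted effect of over 65% in size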
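Cells, 2000/well, grown 16–24 h in DMEM 10% FBS with 0.5 mg/ml G418, then compounds plus […] (300 uM addition stock), 30 min at 37C. cAMP read by HTRF (cAMP-d2 and anti-cAMP antibody-K in lysis buffer) after 30 min RT.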
D2 ag: activates the human D2 dopamine receptor | P14416 | activation, % (no concentration beside the values) | actives 0.084% (n = 360,000) | DiscoveRx PathHunter D2 beta-arrestin, luminescence, 90 min; 100% = 57 uM dopamine signal; in the data active = activation above about 40%; inconclusive = about 15% to 40%; inactive = below about 15%; also: compound concentration not given in the record; the text of the record calls up to 30% inactive
Target sequence (P14416 whole entry, looked up): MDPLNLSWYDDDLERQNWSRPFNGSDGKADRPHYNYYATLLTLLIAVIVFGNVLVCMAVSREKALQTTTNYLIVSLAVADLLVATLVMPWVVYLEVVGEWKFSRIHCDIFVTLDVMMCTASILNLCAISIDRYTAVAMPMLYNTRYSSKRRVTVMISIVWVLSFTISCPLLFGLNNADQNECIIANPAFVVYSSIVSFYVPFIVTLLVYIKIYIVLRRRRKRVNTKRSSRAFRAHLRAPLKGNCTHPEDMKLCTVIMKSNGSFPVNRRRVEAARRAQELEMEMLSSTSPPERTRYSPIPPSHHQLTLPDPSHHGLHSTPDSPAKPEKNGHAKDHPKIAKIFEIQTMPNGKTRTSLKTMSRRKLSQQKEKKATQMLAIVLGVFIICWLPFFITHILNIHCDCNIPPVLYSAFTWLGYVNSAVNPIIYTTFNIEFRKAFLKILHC
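Agonist mode: compounds alone added to overnight-plated D2 PathHunter cells for 90 min at 37 C, with 57 uM final dopamine (EC100) defining full response. Beta-arrestin recruitment detected by chemiluminescent reagent, read after 1 h at ambient temperature.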
Sfp PPTase inh: Sfp phosphopantetheinyl transferase inhibition | Biochemical Sfp PPTase activity, qHTS | actives 3.5% (n = 310,000) | Potency, µM, for the others: max response, negative = inhibition, most hits filed as inhibitors; active = well fitted inhibition curve with a large enough effect; inconclusive = small, poorly fitted or top-dose-only effect, or another doubt; inactive = no such curve, though single readings can be large or run the other way;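 also: the enzyme is Sfp with the accession as filed and its product quenches rhodamine fluorescence; potency is read from the fitted curve at half-maximal effect; 0% = enzyme reaction without inhibitor and -100% = no enzyme wells; top concentration of the series not given in the record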
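With Hepes-Na pH 7.6 buffer containing 10 mM MgCl2, Sfp (15 nM) modified BHQ-2-YbbR (12.5 uM) using rhodamine-CoA (5 uM). Two reads 30 minutes apart at 525/598 nm yielded each well's rate.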
An asterisk follows results filed as active; u = inconclusive; x = not tested or not shown; & = joins results of further samples; [ ] = remark or other dose. This is a random part of the collection; overall some 5.1% were active at least once.

SMILES | PINK1 expr mod | ClpP mod | gsp agonist | Menin-MLL FL inh | gsp antagonist | D2 ag | Sfp PPTase inh
CC1CCCCC1NCC#CCOc1ccc(Cl)cc1 (centres undefined) | 14% | 0.7% | 26% | -0.8 | 15% | 1.0 | -20%
Cc1ccc(S(=O)(=O)N(C)c2ccc(C(=O)Nc3c(C)n(C)n(-c4ccccc4)c3=O)cc2)cc1 | 0.4% | 2.7% | -86%[inhibitor] | -0.5 | 0% | -0.8 | 1%
O=C(Nc1ccc(F)cc1)/C(=C1/CCCCCN1)[N+](=O)[O-] | 0.3% | 1.8% | -27% | 2.9 | -4% | -3.7 | 7%
Cc1nc(Nc2cccc(C(F)(F)F)c2)nc2c1C(=O)CC(C)C2 (centres undefined) | 12% | -8.8% | -6% | 0.7 | -10% | -2.4 | 12%
Cc1nn(-c2ccc(F)cc2)c(C)c1NS(=O)(=O)c1ccc2ccccc2c1 | 3.0%[38.3 µM] | -0.4% | 1% | 0.4 | -21% | 0.3 | 12%
CCc1nnc(NC(=O)c2c(OC)cccc2OC)s1 | 15%[38.3 µM] | -12% | -6% | 2.2 | 2% | -1.5 | -18%
COCCCNC(=O)Nc1ccc(Br)cc1Cl | 1.1%[38.3 µM] | -1.0% | 28% | 4.0 | -4% | -1.9 | 10%
CCOc1cc(N2CCOCC2)c(OCC)cc1NC(=O)COc1cccc2cccnc12 | u | 0.6% | -1% | 2.8 | -24% | -0.5 | 2%
COc1ccc(C2=NN(Cc3ccccc3)C3C(=O)NC(=O)C23)cc1 (centres undefined) | 0.3% | x | u | -2.9 | 2% | 0.5 | 5%
CCOC(=O)c1cccc2c1-c1ccccc1/C2=N/O | -6.9%[38.3 µM] | -1.9% | -55%[inhibitor] | -0.2 | 3% | 1.8 | -7%
O=C1CCCN1CC(O)CS(=O)(=O)Cc1ccc(Cl)c(Cl)c1 (centres undefined) | 0.1% | 1.4% | -1% | -2.3 | 10% | -3.1 | 12%
CC(=O)NC(Cc1c[nH]c2ccccc12)C(=O)NCc1ccc2c(c1)OCO2 (centres undefined) | -3.4%[38.3 µM] | -3.2% | -25% | 3.3 | 1% | -0.9 | 14%
Nc1ccc(C(=O)Nc2ccc(Nc3ccncc3)cc2)cc1 | 0.2% | 1.6% | u | 3.0 | 9% | -5.0 | u
CC(C)C(NC(=O)c1ccccc1)C(=O)OCC(=O)N1CCCC1 (centres undefined) | 0.9% | -0.9% | -28% | x | 1% | 5.8 | x
CN1CCN(NC(=S)NC2CCCC2)CC1 | 1.6% | 0.7% | 5% | 1.9 | 9% | -1.4 | 2%
CCCC(C)c1nnc(NC(=O)c2cc(C(=O)OC)cc([N+](=O)[O-])c2)s1 (centres undefined) | -3.5%[38.3 µM] | 2.6% | -24% | 0.5 | u | -3.5 | 14µM*
Cc1ccc(CCNC(=O)CN(c2ccc(C)cc2)S(=O)(=O)c2c(C)noc2C)cc1 | 0.5%&4.0% | 0.4%&-1.5% | 3% | x | -7% | -0.1 | 15%
Cc1ccc(CN2C(=O)C(Cc3ccccc3)Nc3ncnc(N4CCOCC4)c32)cc1 (centres undefined) | 2.9% | -0.8% | x | x | x | -8.4 | x
CC(C)(C)OC(=O)N1CCC(c2cc(-c3cccs3)n[nH]2)CC1 | 1.8% | -1.3% | -37%[inhibitor] | 0.3 | -9% | 5.5 | 12%
Cn1nc(C(=O)N2CCN(c3ccccc3F)CC2)c2c1-c1ccccc1S(=O)(=O)C2 | -0.3%&0.8% | -1.8%&1.8% | u | 2.5 | -19% | -0.8 | 10%
CCCCN(C(=O)c1ccc2c(c1)S(=O)(=O)N=C1CCCCCN12)c1c(N)n(CCCC)c(=O)[nH]c1=O | -3.1% | x | -1%[15.4 µM] | x | -4% | 8.1 | x
O=C(NC(=S)NC1CCCCC1)c1ccccc1[N+](=O)[O-] | 1.9% | -2.9% | 5% | x | -3% | -3.5 | 2%
N#CC1=C(N2CCCCC2)c2cc3c(n2C1=O)CCCC3 | 1.6% | u | 2% | 1.9 | -5% | -3.1 | 2%
CCOC(=O)c1oc2ccc(S(=O)(=O)n3nc(-c4ccccc4)cc3N)cc2c1C | 1.8% | 0.7% | -34% | 1.1 | 7.9µM* | -1.5 | 21%
CCOc1cc(N2CCOCC2)c(OCC)cc1NC(=O)c1ccc2ccccc2n1 | -0.6% | x | u | 1.4 | -19% | -0.7 | u

A draw from above in order of count of non-hydrogen atoms, lowest first:
SMILES | PINK1 expr mod | ClpP mod | gsp agonist | Menin-MLL FL inh | gsp antagonist | D2 ag | Sfp PPTase inh
CCc1nnc(NC(=O)c2c(OC)cccc2OC)s1 | 15%[38.3 µM] | -12% | -6% | 2.2 | 2% | -1.5 | -18%
Nc1ccc(C(=O)Nc2ccc(Nc3ccncc3)cc2)cc1 | 0.2% | 1.6% | u | 3.0 | 9% | -5.0 | u
COc1ccc(C2=NN(Cc3ccccc3)C3C(=O)NC(=O)C23)cc1 (centres undefined) | 0.3% | x | u | -2.9 | 2% | 0.5 | 5%
Cn1nc(C(=O)N2CCN(c3ccccc3F)CC2)c2c1-c1ccccc1S(=O)(=O)C2 | -0.3%&0.8% | -1.8%&1.8% | u | 2.5 | -19% | -0.8 | 10%

Continuation:
SMILES | PINK1 expr mod | ClpP mod | gsp agonist | Menin-MLL FL inh | gsp antagonist | D2 ag | Sfp PPTase inh
NC(=O)N/N=C/c1sc(=O)n(-c2ccccc2)c1Cl | 0.5% | -0.1% | 0%[15.4 µM] | u | 13% | -7.4 | 9%
O=C(COC(=O)CC1CC2CCC1C2)Nc1ccc(F)cc1 (centres undefined) | 1.9% | -0.6% | u | -1.1 | -2% | -7.7 | 4%
CC(C)c1nc(SCC(=O)Nc2ccc([N+](=O)[O-])cc2Br)n[nH]1 | 0.5% | x | -11%[15.4 µM] | 0.0 | -27% | 3.8 | 7%
CC(=O)c1ccc(NC(=O)C(C)Sc2nnnn2C)cc1 (centres undefined) | 3.8%[38.3 µM] | -1.3% | -3% | 2.8 | -1% | -4.1 | 8%
CC(C)OCCCNC(=O)C1CCN(S(=O)(=O)N2CCCCC2)CC1 | -3.8%[38.3 µM] | -1.0% | u | 3.9 | 6% | -1.9 | 13%
COc1ccc(CCN(C)C(=O)C2CCN(C(=O)Nc3ccccc3)CC2)cc1OC | -3.2% | x | -13%[15.4 µM] | x | 8% | 3.3 | x
COc1ccc(-n2c(Cc3cccn3C)nnc2SCC(=O)Nc2ccccc2)cc1 | -0.6% | -2.3% | -33%[inhibitor] | 6.1 | -5% | -0.7 | -1%
CC(C)c1ccc(OCC(=O)Nc2c3c(nn2C(C)(C)C)CS(=O)(=O)C3)cc1 | 4.2% | -2.0% | 1% | x | -18% | 10 | x
O=[N+]([O-])c1ccc(OCC2CC(c3ccccc3)=NO2)cc1 (centres undefined) | 0.5% | x | -6%[15.4 µM] | -1.7 | 2% | -4.9 | 6%
O=C(c1ccc(C(F)(F)F)cc1)N1CCN(S(=O)(=O)c2ccc3c(c2)OCCCO3)CC1 | -1.8% | -3.4% | u | x | -10% | 0.8 | -17%
COc1ccc(S(=O)(=O)N2CCC(C(=O)Oc3c(OC)cccc3OC)CC2)cc1OC | 0.0% | u | 0% | -1.7 | -8% | -0.4 | -4%
O=C(COC(=O)c1c2c(nc3ccccc13)/C(=C\c1cccs1)CCC2)Nc1ccccc1 | 2.6% | 11% | u | 11 | -13% | -1.7 | 29%
C=CCC1c2cccc(C(=O)O)c2C(=O)N1c1ccc(Cl)cc1 (centres undefined) | 1.1% | -3.4% | u | 1.0 | -8% | 2.6 | 13%
O=S(=O)(c1cccc(Cl)c1)N1CN(CC2CCCO2)c2nc3ccccc3nc21 (centres undefined) | 1.7% | -3.2% | 23% | x | -21% | 4.7 | 2%
CSc1cccc(NC(N)=O)c1 | -1.5% | x | 7% | 0.0 | 11% | 4.2 | u
CCOc1ccc(Nc2ccc(N)c(S(=O)(=O)O)c2)cc1 | 0.7% | x | 17% | x | -8% | 5.0 | x
Cc1ccc(NC(=O)CN2CCN(c3ccccn3)CC2)c(Cl)c1 | -1.4% | -4.2% | 6% | 2.0 | 2% | -5.7 | 79µM*
Cc1cc(Cl)ccc1Oc1ccc(C(N)=O)cc1[N+](=O)[O-] | 4.3% | 0.3% | 11% | 10 | -3% | 0.6 | -3%
O=C([C@@H]1CCCN1C(=O)c1cccs1)N1CCN(S(=O)(=O)c2ccccc2F)CC1 | 1.6% | -0.5% | -2% | x | -2% | -0.8 | x
Cc1cc(=O)oc2cc(OCC(O)CN3CCN(c4ccc(F)cc4)CC3)ccc12 (centres undefined) | 1.4%[38.3 µM] | u | -29% | 2.7 | -2% | u | 13%
Cc1ccc(C(C)(C)NC(=O)C2CCC(=O)N(C3CCCCCC3)C2)cc1 (centres undefined) | 0.9% | -1.5% | 17% | -0.5 | -1% | 0.0 | 13%
C=Cc1ccc(CN2CCCN(Cc3ccc(F)cc3)S2(=O)=O)cc1 | 5.6% | 0.4% | 1% | 3.7 | 8% | -2.6 | 6%
COc1ccc(OC)c(-n2c(O)cnc2Nc2nc(C)cc(C)n2)c1 | 0.3% | -1.7% | -15% | 1.6 | 2% | 6.4 | 1%
Cc1nc2cc(Oc3nc(NCCN(C)C)nc4ccsc34)ccc2s1 | 2.0% | -12% | x | x | x | -5.1 | x
CCOc1ccc(NC(=O)OCCN2CCN(CCc3ccccc3)C(C)C2)cc1 (centres undefined) | -0.4% | -1.5% | 2%[15.4 µM] | x | 8% | -2.7 | x
COc1cc(/C=C(\C#N)c2ccccn2)cc(OC)c1O | 6.8% | 2.8% | 29% | u | -6% | -3.3 | -22%
CCC(=NCc1ccccc1)c1c(C(F)(F)F)[nH]n(-c2nc3ccccc3s2)c1=O | x | -0.7% | u | 1.7 | 12% | -2.1 | -19%
CCc1ccc(OCc2nnc(SCCN3CCOCC3)n2C)cc1 | -4.3% | 0.1% | 2% | 4.7 | -8% | 0.7 | u
O=C(O)c1cc(N/N=C/c2ccc3c(c2)OCCO3)ccc1Cl | 11% | -4.2% | 0% | 3.2 | 15% | 3.5 | 9%
